# HSD17B inhib: qHTS Assay for Inhibitors of HSD17B4, hydroxysteroid (17-beta) dehydrogenase 4. recombinant HSD17B10, NADH fluorescence kinetic; many of its hits are not listed in these tables. Potency, µM (doses to about 57.1 µM), for inactives: top-dose activity change, negative = inhibition, actives largely listed as inhibitors. 3-hydroxyacyl-CoA dehydrogenase type-2 (Homo sapiens), Q99714. hit rate 7.6% among 75,000; active = well fitted inhibition curve with a large enough effect; inconclusive = small, poorly fitted or top-dose-only effect; inactive = no such curve, though single readings can be large or run the other way;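 also: the protocol describes HADH2 (HSD17B10) and not the HSD17B4 of the title; nearly all actives have a fitted effect of over 70% in size; most hits overshoot -100% by far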
#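 20 nM HADH2, pH 9.0 Tris/Tween; cpd preinc 15 min RT; start w/ 1 mM NAD+ + 90 uM b-hydroxybutyryl-CoA; kinetic fluor ex360/em450 q30s x 4 min; delta last-first.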
# * hit, by the source's call; i = inactive; ? = inconclusive; [ ] = dose if it differs, or a comment. % is scaled to controls: 0 for no effect and ±100 for the full control effect; potency is read from the fitted curve at half-maximal effect. An excerpt (hit frequency here may not be typical).
structure,HSD17B inhib
CC(C)Oc1cccc(C(=O)Nc2ccc(CN3CCOCC3)cc2)c1,-1%
COC(=O)C(O)(CC(=O)Nc1ccc(Cl)cc1F)C(F)(F)F (stereo unspecified),1%
CCCCN1CN(S(=O)(=O)c2cccs2)c2nc3ccccc3nc21,?
COc1ccc(-c2cc(C(=O)Nc3cnn(Cc4ccccc4C)c3)no2)cc1OC,25µM*
CCn1c(COc2ccccc2)nnc1SCC(=O)Nc1ccc2c(c1)OCCO2,6%
CCCCCC1CC(=O)N(Cc2ccc(Cl)cc2)C(=O)N1 (stereo unspecified),4%
Ic1ccc2c(c1)N(c1ccccc1)c1cc(Nc3ccc4nc5ccc(I)cc5[n+](-c5ccccc5)c4c3)ccc1N2,-22%[11.4 µM]
N#C/C(=C1/CCCCCN1)c1nc2ccccc2s1,-1%
CCOC(=O)c1c(C)cc(O)c(C)c1O,18%
Cn1c(SCC(=O)C(C)(C)C)nnc1-c1cccnc1,14%
c1ccc2c(c1)CCC[C@@H]2C1=NCCN1,1%[25.6 µM]
Cn1c(=O)[nH]c(=O)c2c1nc(N(CCO)Cc1ccccc1)n2CCCc1ccccc1,-6%
CC(C)OCCCNC(=O)CN1C(=O)CC(C)(C)S(=O)(=O)c2ccccc21,9%
CCCCCC(=O)Nc1cc(N(C)C)nc2ccccc12,i
O=C(COC(=O)C12CC3CC(CC(C3)C1)C2)N1CCN(S(=O)(=O)c2ccccc2)CC1,-9%
CC1CC(c2ccccc2)n2nc(NC(=O)c3ccco3)nc2N1 (stereo unspecified),-4%
COc1ccccc1NC(=O)N1CCCC1C(=O)NC1CCCCC1 (stereo unspecified),-2%
CCC(=O)Nc1ccccc1C(=O)OCC(=O)Nc1ccc(S(N)(=O)=O)cc1,32µM*
CN(C(=O)COC(=O)CNS(=O)(=O)/C=C/c1ccccc1)C1CCS(=O)(=O)C1 (stereo unspecified),12%
COc1ccc(NC(=O)N2CCCC3(CCN(C(=O)c4csnn4)CC3)C2)cc1,-2%
CC(C)N1C(=O)C2ON(c3ccccc3)C(c3cccs3)C2C1=O (stereo unspecified),8%
COc1cc(NS(=O)(=O)c2ccc(NC(=O)CSC3=NCCS3)cc2)nc(OC)n1,-29%
COc1cc2c(cc1OC)C(c1ccc(C)o1)CC(=O)N2 (stereo unspecified),8%
COc1ccc(N2C(=O)CC(Nc3ccc(N4CCOCC4)cc3)C2=O)c(OC)c1 (stereo unspecified),-10%
O=c1[nH]c(NC2CCCCC2)nnc1Cc1ccccc1,-1%
Cc1ccc2c(C)c(C(=O)Nc3nnc(C)s3)oc2c1,-2%
COc1ccccc1-n1c(CNC(=O)c2ccc(S(=O)(=O)N3CCOCC3)cc2)n[nH]c1=S,2%
O=C(CCCSc1nc2sc3c(c2c(=O)[nH]1)CCC3)NCCO,-3%
C1=C(c2ccccc2)CCN(c2ncnc3nc[nH]c23)C1,12%
CN1Cc2cc(C(=O)c3cc(Cl)cc(CSc4ncccn4)c3O)cnc2NC1=O,?
COc1ccccc1Nc1nc(N)nc(CN2CCc3ccccc3C2)n1,?
CC1Cc2ccccc2N1C(=O)CSc1nc(-c2ccco2)cc(C(F)(F)F)n1 (stereo unspecified),15%
CCOC(=O)c1sc(N(Cc2ccccc2)C(=O)CSc2nnc(C3CC3)n2N)nc1C,-7%
O=C(CCCNS(=O)(=O)c1cccc2nsnc12)NCCc1ccccc1,10%
CC(NC(=O)COc1ccccc1)C(=O)NC1=NCCS1 (stereo unspecified),-1%
CCOC(=O)c1sc2nc(N3CCOCC3)c3c(c2c1N)CCCC3,3.2µM*
COc1ccccc1N1CCN(S(=O)(=O)c2cn(C)c(=O)n(C)c2=O)CC1,3%
COC(=O)CSc1nc2cc(C)ccc2cc1C#N,?
O=C(NCc1cccs1)[C@@H]1CSC2c3ccccc3C(=O)N21 (stereo partly specified),-12%
CC1CCCC(C)N1C(=O)c1cc(-c2ccc(Cl)c(Cl)c2)on1 (stereo unspecified),-4%
CCOCCCNC(=O)C(c1ccccc1)N(Cc1ccc2c(c1)OCO2)C(=O)CNC(C)=O (stereo unspecified),4%
CCc1ccccc1NC(=O)c1onc(C)c1Cl,1%
CCN(CC)C(=O)Cn1ncc2c1-c1ccccc1OC2,2%
COc1ccc(Cl)cc1NC(=O)C1CCCN(S(=O)(=O)c2cccc3nonc23)C1 (stereo unspecified),-6%
CCN1CCN(Cc2c(C)[nH]c3ccc(C(=O)OC)cc3c2=O)CC1,?
CSc1nc(=O)n(-c2ccccc2)c(C)c1C(C)=O,-2%
O=C(c1ccco1)N1CCN(C(=O)c2cc3c(=O)oc4ccccc4c3s2)CC1,3%
COC(=O)C1=C(C)n2nnnc2NC1c1cc2ccccc2o1 (stereo unspecified),-1%
Cn1c(=O)n(C)c2cc(S(=O)(=O)N3CCCc4ccccc43)ccc21,6%
Cc1cc(C)nc(-n2c(Nc3ccccc3)cc(=O)c3c(C)n(-c4ccccc4)c(=O)nc32)n1,-7%

# Continuation.
structure,HSD17B inhib
O=C1/C(=N/n2cnnc2)c2ccccc2N1Cc1ccccc1,16µM*
COc1ccc(NC(=O)C(C)NS(=O)(=O)c2ccc(NC(C)=O)cc2)cc1Cl (stereo unspecified),-8%
CCC1=NC(c2ccccc2OC)N(O)C1(C)C (stereo unspecified),11%
COCc1cc(C)nc2sc(C(=O)N3CCCC3)c(N)c12,3%
CCN1CCCC1Cn1c(-c2ccccc2)nc2c(N(CCOC)CCOC)nc(C)nc21 (stereo unspecified),25µM*
CC1CCN(C(=O)c2scc3c2OCCO3)CC1,8%
COc1cc(NS(=O)(=O)c2ccc(NC(C)=O)cc2)cc(OC)c1,6%
CCn1c(=O)n(CC(=O)NCc2ccccc2OC)c(=O)c2ccccc21,-14%
CCc1ccc2nc(NC(=O)CSCc3c(C)noc3C)sc2c1,0%
C=C(C)Cn1c(CCNC(=O)C(C)(C)C)nc2ccccc21,0%
Cc1nc2sc(C(c3ccco3)N3CCN(c4ccccc4)CC3)c(O)n2n1 (stereo unspecified),-11%
COc1ccc2c(c1)C(=NO)c1cc(OC)ccc1-2,2%
Cc1cc(C(=O)CSc2nnc(-c3cccc(F)c3)n2N)c(C)n1Cc1ccc2c(c1)OCO2,-13%
Cc1ccc2[nH]c(-c3ccccc3)cc(=O)c2c1,32µM*
N#Cc1nc(-c2ccc(F)cc2)oc1NCCN1CCOCC1,13µM*
COc1ccc(OC)c(-c2nnc(SCC(=O)NC3CCCCC3)o2)c1,1%
CCCCOc1ccccc1C(=O)NCC(=O)O,12%
Cc1nc(NCCO)c2nnn(Cc3ccccc3F)c2n1,6%
O=C(Nc1ccc(C(F)(F)F)cc1)C1CCCN1S(=O)(=O)c1cccc2cccnc12 (stereo unspecified),3%
CSc1ccccc1C(=O)NCc1ccc2c(c1)OCO2,-8%

# Shown with each value named: entries from further up.
mol: CSc1nc(=O)n(-c2ccccc2)c(C)c1C(C)=O
  HSD17B inhib: -2%
mol: O=C(c1ccco1)N1CCN(C(=O)c2cc3c(=O)oc4ccccc4c3s2)CC1
  HSD17B inhib: 3%

# Additional records follow:
structure,HSD17B inhib
CCC(C)NC(=O)CCC(=O)Nc1ccc2nc(N3CCOCC3)cc(C)c2c1 (stereo unspecified),32µM*
O=C(CSc1ncccn1)NCCc1ccccc1,-1%
Cn1c(NCCc2ccccc2)cc(=O)n(C)c1=O,0%
CCCc1cc(N2CCCC(C(=O)Nc3ccc(OC)cc3OC)C2)n2ncnc2n1 (stereo unspecified),2%
Cc1cc(=O)n(-c2ccc3ccccc3n2)[nH]1,8%
COc1cccc(-c2nnn(CC(=O)O)n2)c1,1%
CN(C)c1nc(N)nc(CSc2nc3cc(Cl)ccc3o2)n1,-4%
CC1(C)Cc2ccccc2-c2nnc(-c3ccccn3)n21,9%
COc1ccccc1Nc1ccc(C(=O)NC2CCCCC2)cn1,7%
Cn1c(SCC(=O)NCc2cccs2)nnc1-c1ccncc1,6%

# Not a retest: five of the compounds above.
structure,HSD17B inhib
COc1cccc(-c2nnn(CC(=O)O)n2)c1,1%
CN(C)c1nc(N)nc(CSc2nc3cc(Cl)ccc3o2)n1,-4%
CC1(C)Cc2ccccc2-c2nnc(-c3ccccn3)n21,9%
COc1ccccc1Nc1ccc(C(=O)NC2CCCCC2)cn1,7%
Cn1c(SCC(=O)NCc2cccs2)nnc1-c1ccncc1,6%

# (listing goes on)
structure,HSD17B inhib
CN1[C@@H](c2ccccc2)CC(=NO)C[C@H]1c1ccccc1,10%[11.4 µM]
COc1ccc(NC(=O)C2CCCNC2)cc1OCC(C)C (stereo unspecified),-1%
CN1CC2CCCC3(C1)C(=O)NC1(CCCCC1)N=C23 (stereo unspecified),5%
O=C1[C@H]2[C@H]3[C@H](O)[C@H](O)C/C(=N/OC[C@@H](O)COCc4ccco4)[C@@H]3CC[C@@H]2C(=O)N1C[C@@H]1CCCO1,5%[11.4 µM]
N#Cc1c2c(c(N3CCN(CCO)CC3)n3c1nc1ccccc13)CCCC2,-19%
O=C(O)CSc1nnc(-c2ccccc2)o1,10%
c1ccc(-c2nc3ccccc3o2)nc1,32µM*
CN(c1ccccc1)C(c1ccc(F)cc1)c1nnnn1CC1CCCO1 (stereo unspecified),-9%
CCn1c(=O)c(C(=O)CN2CC(C)OC(C)C2)c(N)n(Cc2ccccc2)c1=O (stereo unspecified),4%
CC1=C(NCCc2ccccc2)CCC1=O,3%
COc1ccc(-c2nnc(SCC(=O)N3CCCc4ccccc43)o2)cc1OC,16%
O=C(NCCc1ccccc1)C1CCCN(S(=O)(=O)c2cnc[nH]2)C1 (stereo unspecified),5%
COc1ncc2nc(-c3ccc(F)cc3)c(=O)n(CCc3ccccc3)c2n1,-1%
CCn1cc(SCC(N)=O)c2ccccc21,8%
CC(C)(C)NC(=O)C(Cc1ccccc1)NS(=O)(=O)c1cccc2nsnc12 (stereo unspecified),5%
Cc1ccc2cccc(O)c2[n+]1[O-],-29%
CCCCCn1c(CN2CCN(c3cccc(Cl)c3)CC2)nc2c1c(=O)n(C)c(=O)n2C,-21%
Cc1ccc(N2CC(C(=O)Nc3ccc(S(=O)(=O)N4CCOCC4)cc3)CC2=O)cc1 (stereo unspecified),-10%
O=C1CCCN1CCCNc1ccc(S(=O)(=O)N2CCCCC2)cn1,-20%
O=C(CSc1nnc(-c2cccnc2)n1CCc1ccccc1)N1CCCCC1,0%
O=C(COc1ccc(Br)cc1)Nc1ccc(-c2nnc(-c3ccco3)o2)cc1,0%
CC(=O)Nc1cccc(NC(=O)CCCC(=O)O)c1,1%
Cc1oc2ccc(OCC(N)=O)cc2c1C(=O)OC(C)C,-2%
COc1ccc(NC(=O)Cn2cnc3c(cnn3-c3ccc(C)c(C)c3)c2=O)c(OC)c1,-29%
CCCNC(=O)CCC(NS(=O)(=O)c1ccc(C)cc1)C(=O)NCCC (stereo unspecified),4%
OC[C@H]1O[C@@H](n2cnc3c(NCCc4ccccc4)ncnc32)[C@H](O)[C@H]1O,-5%
COc1ccc(CCNC(=O)CSc2nc(C)nc3c2oc2ccccc23)cc1OC,6%
CC(=O)C(Sc1ccc2nnc(-c3ccncc3)n2n1)C(C)=O,11%
CC(C)(CCC(C)(C)c1ccccc1)c1ccccc1,5%[11.4 µM]
COC(=O)[C@@H]1C[C@@]2(O)[C@@H](O)[C@@H](O)[C@@H](O)C[C@H]2N1Cc1ccc(Cl)cc1,-5%

# 2 compounds picked at random from the list so far:
structure,HSD17B inhib
CCC(=O)Nc1ccccc1C(=O)OCC(=O)Nc1ccc(S(N)(=O)=O)cc1,32µM*
COc1ccc(NC(=O)C2CCCNC2)cc1OCC(C)C (stereo unspecified),-1%

# The list continues.
structure,HSD17B inhib
COc1cccc(-n2nnc3c(=O)n(Cc4c(F)cccc4Cl)cnc32)c1,0%
COC(=O)C1=C(C)NC(=O)C1(NC(=O)c1cccnc1)C(F)(F)F (stereo unspecified),-6%
COc1cc(OC)c(-c2nnc(-c3ccc(OC)c(OC)c3OC)o2)cc1OC,32µM*
O=C(NC(Cc1c[nH]c2ccccc12)c1nnc2n1CCCCC2)c1cccs1 (stereo unspecified),-1%
O=C(CN1C(=O)NC2(CCc3ccccc32)C1=O)c1ccc2c(c1)OCCO2 (stereo unspecified),-13%
O=C(C1CCN(S(=O)(=O)c2ccc3ccccc3c2)CC1)N1CCN(c2ncccn2)CC1,?
CCCCNC(=O)c1cc2c(=O)n3cccc(C)c3nc2n1C,70%[activator]
Cc1csc2nc(CNS(=O)(=O)c3ccc(-c4ccccc4)cc3)cn12,-4%
CSc1nn(CCc2ccncc2)c(=S)s1,5%
CCCn1cnc2c(SCC(=O)O)nc(N)nc21,8%[11.4 µM]
CCOC(=O)CS(=O)(=O)c1ccc2ccccc2c1,-1%
c1cnc(Oc2ccc3oc4ccccc4c3c2)nc1,-14%
C=CCN=C1CC(C)(C)CC(=O)/C1=C(/O)CCC(=O)OC,-7%
COc1ccc(NC(=O)Cc2cccs2)c(OC)c1,-3%
O=C(CCn1c(=O)oc2ccccc21)NCc1cccs1,13%
COC(=O)[C@@H](NC(=O)Nc1ccc2c(c1)OCCO2)C(C)C,5%
